Compound activity as filed in PubChem BioAssay.
Vif TR-FRET: inhibitors of Vif binding to APOBEC3G peptide, primary screen, biochemical, TR-FRET, GST-Vif 1-94, biotin-A3G peptide, dose response retest (AID 1117319); TR-FRET GST-Vif / biotin-A3G peptide binding; higher % means a stronger effect; test concentration not given here; strong numbers were not always called active; inhibition, %, or IC50 in µM where a hit was titrated; 260,000 tested, 0.57% active;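 active = above the screen mean plus three standard deviations and confirmed in dose response; inconclusive = results disagree or hit not tested in dose response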;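 note: Vif residues 1-94 fused to GST binding biotinylated APOBEC3G peptide 110-148; 0% = full assay without inhibitor and 100% = GST in place of GST-Vif; retest series ran down from 100 µM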
RanGTP-Impb inh: inhibitors of RanGTP-importin-beta interaction, primary screen, biochemical, FRET, CFP-Ran, YFP-importin-beta, homogeneous | AID 2216 | 300,000 tested, 1.1% active | inhibition, % (concentration not given with the values) | cell-free CFP-Ran/YFP-importin-beta FRET ratio;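 active = most replicates above 15%; inconclusive = exactly half above 15%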;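 note: 0% = DMSO wells and 100% = Ran loaded with GDP instead of GTP; wells of about 40 µL received 100 nL stock; the first replicate is given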
MLL AF4-AF9 inh: inhibitors of human MLL-AF4/AF9 interaction. AlphaScreen, biotin-AF4 peptide binding to FLAG-AF9. inhibition, % at 10 µM. 350,000 tested, 0.47% active. AID 651704;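 active = every replicate reaching a set inhibition limit, whatever the replicate mean, cut at about 25% in these data; inconclusive = mean inhibition reaches that limit but some replicates miss it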;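 note: 0% = plate neutral control median and 100% = total signal loss; the record names both 10 and 1 µM as test concentration; the first replicate is given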
Target sequence (P42568 whole entry, looked up): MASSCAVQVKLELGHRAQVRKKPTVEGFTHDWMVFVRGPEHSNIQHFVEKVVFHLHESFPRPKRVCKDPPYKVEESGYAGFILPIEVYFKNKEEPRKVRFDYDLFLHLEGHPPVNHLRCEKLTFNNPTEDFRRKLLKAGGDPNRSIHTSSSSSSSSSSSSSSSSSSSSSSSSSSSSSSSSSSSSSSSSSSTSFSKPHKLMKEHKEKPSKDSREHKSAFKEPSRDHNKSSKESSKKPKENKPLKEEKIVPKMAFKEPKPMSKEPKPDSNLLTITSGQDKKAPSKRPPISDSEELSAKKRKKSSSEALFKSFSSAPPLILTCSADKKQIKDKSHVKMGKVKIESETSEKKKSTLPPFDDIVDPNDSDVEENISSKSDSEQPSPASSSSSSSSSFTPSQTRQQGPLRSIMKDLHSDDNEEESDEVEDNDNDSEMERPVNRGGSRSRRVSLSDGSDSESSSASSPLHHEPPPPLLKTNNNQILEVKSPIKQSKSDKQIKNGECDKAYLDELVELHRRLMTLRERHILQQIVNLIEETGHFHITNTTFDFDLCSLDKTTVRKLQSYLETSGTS
Calb FLC: affects C. albicans growth with fluconazole | 300,000 tested, 0.57% active | growth inhibition, % (no concentration beside the values) | C. albicans CaCi-2 (fluconazole-resistant clinical isolate) + fluconazole, Alamar Blue growth, 48 h;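 active = most replicates above 75%; inconclusive = exactly half above 75%; inactive = most below 75%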;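 note: all wells also contain fluconazole at 8 µg/ml as a sub-toxic cotreatment; 0% = median of DMSO wells and 100% = median of geldanamycin control wells; wells of about 8 µL received 7.5 nL stock; the first replicate is given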
rRNA inh HTS: inhibitors of bacterial rRNA selective over humanized ribosomes | GFP signal change (wild-type ribosome), % (concentration not given with the values) | 350,000 tested, 1.6% active | E. coli WT GFP vs humanized-ribosome RFP mutants, fluorescence, 24 h; hits give low values; DMSO median 0, no signal -100 | AID 720706;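 active = significant combined selectivity score with lowered wild-type GFP, culture density cut under 30%, mutant RFP and density less affected; inactive = any of these conditions unmet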; note: one replicate is shown; some compounds called inactive have numbers as strong as hits
T cruzi repl: T. cruzi replication inhibition | T. cruzi beta-gal in NIH3T3, luminescence, 90 h | inhibition, % (concentration not given with the values) | 300,000 tested, 1.4% active | AID 1885;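 active = mean inhibition across valid replicates above about 55%, limit read from the data; inconclusive = mean below that limit but half or more replicates reach it; inactive = mean below it, under half of replicates reach it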;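 note: signal also drops with host cell toxicity which is not excluded here; 0% = plate median of DMSO wells and 100% = zero luminescence signal; higher percent means less beta-gal luminescence so fewer parasites; stock transfer was 50 nL into about 50 µL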
Beta cell apopt: beta cell apoptosis inhibition; INS-1E cytokine-induced death, ATP luminescence, 48 h; percent of positive-control rescue, neutral wells zero; protection from apoptosis, % (no concentration beside the values); 300,000 tested, 0.8% active;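 active = all replicates at 75% or more, or half of them and the mean; inconclusive = half reach 75% but not the mean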;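 note: 0% = cytokine-treated negative control wells and 100% = positive control rescue; higher means more ATP so stronger rescue from cytokine killing; wells of about 40 µL received 100 nL stock; the first replicate is given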
A1 inh: inhibitors of the anti-apoptotic protein A1, read as caspase activation. 330,000 tested, 0.066% active. caspase activation, % (test concentration not listed). AID 2462. MEF A1-2A-BIM cells, Caspase-Glo 3/7 luminescence, 3 h; percent of clofoctol response, vehicle zero;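 active = over half of replicate activation scores above 10%, or exactly half above 10 with the replicate mean above 10; inconclusive = replicate mean below 10 yet half the replicates above 10; inactive = over half of replicates below 10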;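 note: wells of about 30 µL received 50 nL stock; many hits fall short of the cut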
rRNA inh HTS OD600: recorded beside rRNA inh HTS, whose call it bears; OD600 change, %; measured here: OD600 growth;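 optical density of the mix in the first replicate; 0 = DMSO median and -100 = no signal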
rRNA inh HTS RFP: second read-out of rRNA inh HTS, no call of its own (marks repeat the call); RFP signal change, %; measured here: RFP humanized mutant strains;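 first replicate; 0 = DMSO median and -100 = no signal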
The depositor's hits bear a star. Only part of the results is shown, so the mix of outcomes need not match the whole.

Results for CSCCC(NC(=O)COc1ccccc1)C(=O)NCc1cccs1 (centres undefined) ?
RanGTP-Impb inh: 6.4; MLL AF4-AF9 inh: -3.1; Calb FLC: -11.0; rRNA inh HTS: -0.9; T cruzi repl: -2.2; Beta cell apopt: -1.9; A1 inh: 0.4; rRNA inh HTS OD600: 9.1; rRNA inh HTS RFP: 2.0

Results for OC1(C#CCN2CCOCC2)CCCCC1 ?
Vif TR-FRET: -0.1%; RanGTP-Impb inh: inconclusive; MLL AF4-AF9 inh: -1.3; Calb FLC: -14.1; rRNA inh HTS: -5.6; T cruzi repl: -1.4; Beta cell apopt: 1.6; A1 inh: 0.7; rRNA inh HTS OD600: -0.2; rRNA inh HTS RFP: -2.6

Results for COc1cc2[nH]c(=O)n(CCCCCC(=O)NCCCN3CCC(C)CC3)c(=O)c2cc1OC ?
Vif TR-FRET: inconclusive; RanGTP-Impb inh: 0.2; Calb FLC: -6.0; T cruzi repl: -30.2; Beta cell apopt: -6.4; A1 inh: 0.5

Results for O=C(Nc1cccc(NC(=S)NC(=O)c2cccs2)c1)c1ccccc1 ?
Vif TR-FRET: -12.7%; RanGTP-Impb inh: -2.6; Calb FLC: 45.5; T cruzi repl: -12.1; Beta cell apopt: 2.2; A1 inh: 0.4

How did COc1ccc(NC(=O)NN2CCN(C)CC2)cc1 do in these assays?
RanGTP-Impb inh: -1.0; MLL AF4-AF9 inh: 0.9; Calb FLC: 0.1; rRNA inh HTS: 17.3; T cruzi repl: 23.4; Beta cell apopt: -2.9; A1 inh: -0.1; rRNA inh HTS OD600: 21.1; rRNA inh HTS RFP: 0.7

Results for CCCC(=O)N1CCN(c2ccc(NC(=O)c3ccc4c(c3)OCCO4)cc2)CC1 ?
Vif TR-FRET: -0.4%; RanGTP-Impb inh: 0.4; MLL AF4-AF9 inh: 0.1; Calb FLC: -1.2; rRNA inh HTS: 1.0; T cruzi repl: -22.6; Beta cell apopt: 3.0; A1 inh: 0.7; rRNA inh HTS OD600: 1.5; rRNA inh HTS RFP: 6.3

Results for COc1ccc(-c2nc(CS(=O)(=O)CC(=O)NCCCN3CCOCC3)c(C)o2)cc1 ?
RanGTP-Impb inh: -1.2; MLL AF4-AF9 inh: 2.0; Calb FLC: -10.2; rRNA inh HTS: -0.8; T cruzi repl: -8.4; Beta cell apopt: -0.2; A1 inh: 0.1; rRNA inh HTS OD600: 1.5; rRNA inh HTS RFP: -3.3

What do the screens show for `COC(=O)c1cc(S(=O)(=O)n2nc(C)c(Br)c2C)c(Cl)cc1Cl`?
Vif TR-FRET: 29.5%; RanGTP-Impb inh: -0.3; Calb FLC: 48.9; T cruzi repl: -18.0; Beta cell apopt: 10.1; A1 inh: 0.7

What do the screens show for `C=CCN(Cc1cc(OC)ccc1OC)S(=O)(=O)N(C)C`?
Vif TR-FRET: 4.8%; Calb FLC: 4.2; Beta cell apopt: -9.2; A1 inh: 0.0

How did Cc1cc(Nc2ccccc2C(=O)O)n(-c2cccc(Cl)c2)n1 do in these assays?
Vif TR-FRET: -4.7%; RanGTP-Impb inh: 1.3; MLL AF4-AF9 inh: 0.4; Calb FLC: -2.9; rRNA inh HTS: -19.2; T cruzi repl: -11.4; Beta cell apopt: -1.3; A1 inh: -0.4; rRNA inh HTS OD600: -14.3; rRNA inh HTS RFP: -7.2

How did Cc1ccc(C(=O)NCCCN2CCOCC2)cc1 do in these assays?
Vif TR-FRET: -1.1%; RanGTP-Impb inh: -0.9; Calb FLC: -5.1; T cruzi repl: -0.6; Beta cell apopt: -4.2; A1 inh: 0.9

What do the screens show for `COc1ccc(-c2ccc(CCC(=O)O)n2-c2ccccc2O)cc1`?
Vif TR-FRET: inconclusive; RanGTP-Impb inh: -0.5; MLL AF4-AF9 inh: 4.3; Calb FLC: -1.2; rRNA inh HTS: -0.1; T cruzi repl: -13.9; Beta cell apopt: -5.2; A1 inh: -1.7; rRNA inh HTS OD600: 0.7; rRNA inh HTS RFP: 2.4

How did Cc1ccccc1OCC(=O)OCC(=O)c1ccc[nH]1 do in these assays?
Vif TR-FRET: 7.1%; MLL AF4-AF9 inh: 3.7; rRNA inh HTS: -2.1; Beta cell apopt: -10.2; A1 inh: 0.3; rRNA inh HTS OD600: -6.8; rRNA inh HTS RFP: -0.5

What do the screens show for `CCN(CC(=O)NCc1cccs1)C(=O)c1cccc(S(=O)(=O)Nc2ccccc2OC)c1`?
RanGTP-Impb inh: -2.2; MLL AF4-AF9 inh: 19.7; Calb FLC: -1.4; rRNA inh HTS: -0.1; T cruzi repl: 4.3; Beta cell apopt: -24.7; A1 inh: -0.2; rRNA inh HTS OD600: -1.3; rRNA inh HTS RFP: -0.7

Results for CC1(CC(=O)N/N=C/c2cc(Br)c(O)cc2O)OCCO1 ?
Vif TR-FRET: 11.8%; RanGTP-Impb inh: 6.0; Calb FLC: -7.3; T cruzi repl: 1.9; Beta cell apopt: -3.6; A1 inh: 0.5

How did Cc1cc(C)c(NC(=O)CCN2CCN(Cc3ccccc3)CC2)c(C)c1 do in these assays?
RanGTP-Impb inh: 0.1; MLL AF4-AF9 inh: -4.3; Calb FLC: -4.3; rRNA inh HTS: 1.0; T cruzi repl: 20.7; A1 inh: 1.5; rRNA inh HTS OD600: -7.1; rRNA inh HTS RFP: 0.4

Results for CCN(CC)C(=O)c1cnn(-c2ccccc2)c1NC(=O)c1cccs1 ?
Vif TR-FRET: 10.7%; RanGTP-Impb inh: -1.8; Calb FLC: -1.3; T cruzi repl: -0.6; Beta cell apopt: -2.5; A1 inh: -0.6

Results for C=CCNC(=O)C1(c2ccccc2)CC1(Cl)Cl (centres undefined) ?
Vif TR-FRET: 1.6%; RanGTP-Impb inh: 1.1; MLL AF4-AF9 inh: -1.0; Calb FLC: 36.8; rRNA inh HTS: 7.4; T cruzi repl: -14.7; Beta cell apopt: 1.2; A1 inh: 0.7; rRNA inh HTS OD600: 5.9; rRNA inh HTS RFP: -1.2

How did O=C(c1ccc2oc(CCc3ccccc3)nc2c1)N1CC[C@H](O)C1 do in these assays?
Vif TR-FRET: 7.8%; RanGTP-Impb inh: -0.5; MLL AF4-AF9 inh: 1.0; Calb FLC: -6.2; rRNA inh HTS: 5.8; T cruzi repl: -2.9; Beta cell apopt: -4.3; A1 inh: -2.6; rRNA inh HTS OD600: 5.4; rRNA inh HTS RFP: 0.2

Results for CCOc1ccc(NC(=O)Nc2cccnc2)cc1 ?
Vif TR-FRET: -3.9%; RanGTP-Impb inh: inconclusive; MLL AF4-AF9 inh: -3.2; Calb FLC: 6.3; rRNA inh HTS: 0.5; T cruzi repl: 1.4; Beta cell apopt: 16.7; A1 inh: -6.7; rRNA inh HTS OD600: -0.9; rRNA inh HTS RFP: -1.7

How did Cc1c(NC(=O)c2ccc(=O)oc2)c(=O)n(-c2ccccc2)n1C do in these assays?
Vif TR-FRET: 2.7%; RanGTP-Impb inh: 1.7; Calb FLC: 2.2; T cruzi repl: -17.8; Beta cell apopt: -13.5; A1 inh: 0.1

How did O=C(CCC(=O)Nc1ccccc1)N/N=C/C=C/c1ccccc1 do in these assays?
Vif TR-FRET: -4.7%; RanGTP-Impb inh: -1.6; Calb FLC: -0.6; T cruzi repl: -12.5; A1 inh: -0.1

Results for Cc1nn(-c2ccccc2)c(C)c1CN(C)C(=O)c1ccc(S(=O)(=O)NCc2ccco2)cc1 ?
MLL AF4-AF9 inh: 11.0; rRNA inh HTS: -33.1*; Beta cell apopt: -0.2; A1 inh: 1.0; rRNA inh HTS OD600: -10.4*; rRNA inh HTS RFP: 3.3*

How did O=C(CN1C(=O)CCS(=O)(=O)c2ccccc21)Nc1cccc(F)c1 do in these assays?
Vif TR-FRET: -0.8%; RanGTP-Impb inh: -3.2; Calb FLC: -4.4; T cruzi repl: -0.1; Beta cell apopt: -3.1; A1 inh: 0.7

What do the screens show for `Cn1nc(C(=O)OCC(=O)c2ccc[nH]2)c2ccccc2c1=O`?
RanGTP-Impb inh: 0.2; MLL AF4-AF9 inh: -1.7; Calb FLC: -10.9; rRNA inh HTS: 0.9; T cruzi repl: -4.6; A1 inh: 0.1; rRNA inh HTS OD600: 1.6; rRNA inh HTS RFP: 0.9

Results for O=Cc1ccc(OCCOc2ccc([N+](=O)[O-])cc2)cc1 ?
Vif TR-FRET: 9.6%; RanGTP-Impb inh: 2.3; MLL AF4-AF9 inh: -2.2; Calb FLC: 5.6; rRNA inh HTS: 5.4; T cruzi repl: 3.1; Beta cell apopt: 0.1; A1 inh: 0.2; rRNA inh HTS OD600: 18.2; rRNA inh HTS RFP: -1.3

Results for N#Cc1cc2c(nc1SCc1ccccc1)CCCCC2 ?
Vif TR-FRET: -3.8%; RanGTP-Impb inh: -3.2; Calb FLC: -1.6; T cruzi repl: 28.0; Beta cell apopt: 3.0; A1 inh: 0.6

Results for CSc1n[nH]c(NC(=O)c2c(-c3c(Cl)cccc3Cl)noc2C)n1 ?
Vif TR-FRET: -12.1%; RanGTP-Impb inh: -1.0; MLL AF4-AF9 inh: 1.6; Calb FLC: 2.1; T cruzi repl: 13.3; Beta cell apopt: -0.3; A1 inh: -0.3

What do the screens show for `CCOC(=O)N1CCN(S(=O)(=O)c2ccc(NC(C)=O)cc2)CC1`?
RanGTP-Impb inh: 0.9; MLL AF4-AF9 inh: 3.9; Calb FLC: 0.7; rRNA inh HTS: -0.1; T cruzi repl: -17.4; Beta cell apopt: 2.5; A1 inh: 0.4; rRNA inh HTS OD600: 5.3; rRNA inh HTS RFP: -2.2

Results for Cc1cccc(Oc2nccc(C(F)(F)F)c2C(=O)Nc2ccc(F)cc2F)c1 ?
Vif TR-FRET: 19.4%; RanGTP-Impb inh: 12.2; MLL AF4-AF9 inh: -1.1; Calb FLC: 1.7; rRNA inh HTS: 13.9; T cruzi repl: -4.0; Beta cell apopt: 7.1; A1 inh: -0.2; rRNA inh HTS OD600: 17.9; rRNA inh HTS RFP: 2.9

What do the screens show for `COCCNC(=O)Cc1cn(C)c2ccccc12`?
Vif TR-FRET: 24.6%; RanGTP-Impb inh: 1.9; Calb FLC: 2.5; T cruzi repl: -12.0; Beta cell apopt: 2.5; A1 inh: 0.7

What do the screens show for `O=C(O)CC(SCC(=O)Nc1ccc(S(=O)(=O)N2CCCC2)cc1)C(=O)O` (centres undefined)?
Vif TR-FRET: -7.9%; RanGTP-Impb inh: -0.7; MLL AF4-AF9 inh: -3.0; Calb FLC: -22.3; rRNA inh HTS: 9.8; T cruzi repl: -4.5; Beta cell apopt: -6.0; A1 inh: 0.3; rRNA inh HTS OD600: 4.0; rRNA inh HTS RFP: -0.8

How did O=C(Cc1ccccc1F)Nc1nc(-c2ccc(F)c(F)c2)cs1 do in these assays?
RanGTP-Impb inh: inconclusive; MLL AF4-AF9 inh: -2.8; Calb FLC: -30.5; rRNA inh HTS: -42.7; T cruzi repl: 11.7; Beta cell apopt: -2.0; A1 inh: 0.5; rRNA inh HTS OD600: -44.2; rRNA inh HTS RFP: -10.5
